Yeast UUG start: modulators of yeast start codon fidelity, primary screen, whole organism, S. cerevisiae, single point, plate reader; AID 602363, 2012; activity score, % at 18.7 µM; S. cerevisiae UUG-firefly luciferase reporter, luminescence/redox ratio; 350,000 compounds, 0.13% hits;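 active = replicate mean at a twofold rise or more, about +100% in these data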;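 note: firefly luciferase made from a UUG start codon reports start codon fidelity; reporter light over untreated wells divided by growth signal over untreated wells; some hits fall short of that in this replicate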
MT1-MMP act inh: blockers of MT1-MMP proenzyme processing, primary screen, HT1080 RFP-PRO-GFP cells, GFP/RFP fluorescence. Matrix metalloproteinase-14 (Homo sapiens), P50281. GFP/RFP ratio fluorescence, overnight; percent of plate control window, DMSO zero. GFP/RFP ratio change, % at 20 µM. 360,000 compounds, 0.061% hits;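 active = GFP/RFP ratio change of at least 30% with cell ATP level not reduced by more than half and red fluorescence within 50% of control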; note: strong numbers were not always called active
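Test system: HT1080 RFP-PRO-GFP cells; Benchmarks: DMSO and RFP-L50D-GFP cell wells; Timing: cells overnight before dosing, compound overnight, 37 °C, 5% CO2; Compound: one 20 µM compound dose with 1% DMSO; Read-out: GFP/RFP fluorescence ratio.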
CSC inhib: cancer stem cell viability inhibitors, primary screen, luminescence. cancer stem cell-like cells viability. AID 2717, 2010. inhibition, % at 7.5 µM. 300,000 compounds, 1.1% hits;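 active = mean at 75% or more and at least half the replicates too; inconclusive = mean and replicates disagree; tested in HMLE shEcad cells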;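 note: 0% = median of negative and 100% = median of positive control wells; the first replicate is given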
eIF4H FP inh: human eIF4H binding inhibitors, primary screen, translation initiation inhibitor project, biochemical, uHTS, fluorescence polarization. Eukaryotic translation initiation factor 4H (Homo sapiens), Q15056. eIF4H fluorescence polarization binding assay. inhibition, % at 35 µM. 290,000 compounds, 0.94% hits. AID 2012, 2009;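 active = 50% or more with normal probe brightness, or confirmed in later tests; inconclusive = above 50% with abnormal brightness, or retests that disagree; inactive = below 50% or failed in later tests; about a fifth of its hits are not listed in these tables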;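 note: calls also rest on retests at 20 µM and on dose response follow-up; 0% = protein and probe with vehicle and 100% = probe without protein; strong numbers were not always called active; many hits fall short of the cut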
PABP polyA inh: PABP poly(A) RNA binding inhibitors, primary screen, biochemical, fluorescence polarization, uHTS; inhibition, % at 35 µM; Polyadenylate-binding protein 1 (Homo sapiens), P11940; 290,000 compounds, 1% hits;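 active = 50% or more with normal probe brightness, or confirmed in later tests; inconclusive = above 50% with abnormal brightness, or retests that disagree; inactive = below 50% or failed in later tests; about a fifth of its hits are not listed in these tables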;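 note: calls also rest on retests at 20 µM and on dose response follow-up; controls were probe without protein and protein plus probe with vehicle; some compounds called inactive have numbers as strong as hits; many hits fall short of the cut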
Env fusion inh: inhibitors of HIV-1 Env-driven cell-cell fusion, primary screen, HeLa-JRFL effector, CEM21 target cells, luciferase; AID 651610, 2012; 360,000 compounds, 1.1% hits; inhibition, % at 12.3 µM;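 active = mean replicate inhibition score of at least 50 and every replicate individually at or above 50; inconclusive = only one of the two criteria met; inactive = mean below 50 and not all replicates reaching 50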;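 note: 0% = plate neutral controls and 100% = maraviroc near 300 nM; one replicate is shown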
Rce1 inh: yeast Rce1p protease inhibitors, primary screen, biochemical, fluorescence, cell-free homogeneous. CAAX prenyl protease 2 (Saccharomyces cerevisiae (strain ATCC 204508 / S288c)), Q03530. yeast membranes, quenched prenylated peptide cleavage fluorescence. calls only. 290,000 compounds, 0.27% hits;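 active = fall in fluorescence gain of 50% or more versus controls, with final raw signal at or below 3038400; inconclusive = same 50% fall but final raw signal above 3038400; inactive = fall in fluorescence gain under 50%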;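 note: plate controls were neutral control wells for no effect and wells lacking membranes for full effect; tested at 10 µM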
Target sequence (Q03530 whole entry, looked up): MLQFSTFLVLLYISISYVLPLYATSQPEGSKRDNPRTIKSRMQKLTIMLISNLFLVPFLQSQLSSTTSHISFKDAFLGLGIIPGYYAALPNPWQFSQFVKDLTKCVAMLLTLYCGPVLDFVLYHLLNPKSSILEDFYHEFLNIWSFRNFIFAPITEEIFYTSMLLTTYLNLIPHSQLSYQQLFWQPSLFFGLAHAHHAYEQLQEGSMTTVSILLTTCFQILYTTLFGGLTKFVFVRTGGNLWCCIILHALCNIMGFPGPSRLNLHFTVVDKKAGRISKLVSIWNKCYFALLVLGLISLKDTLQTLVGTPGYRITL
eIF4H FP inh retest: also measured in eIF4H FP inh; calls as there; inhibition, %; compound at 20 µM; confirmation average;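 mean of two retest wells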
PABP polyA inh retest: also measured in PABP polyA inh; calls as there; inhibition, %; compound at 20 µM; confirmation repeats;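 mean of two retest wells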
MT1-MMP act inh RFP: further read-out of MT1-MMP act inh, marked with its call; RFP signal change, %; measured here: RFP expression control read;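 0 = vehicle wells; hits needed this value within 50% of zero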
* marks the source's active call; other numbers are inactive results; i = inactive; u = inconclusive; x = no result given; [ ] = dose if it differs, or a comment. Only part of the results is shown; count on the stated rates, not on these rows.

Preview, three compounds:
SMILES	Yeast UUG start	MT1-MMP act inh	MT1-MMP act inh RFP	CSC inhib	eIF4H FP inh	PABP polyA inh	Env fusion inh	Rce1 inh	others
Cc1ccc(NC(=O)CSc2nc3ccc(Nc4nc(N5CCOCC5)nc(N5CCOCC5)n4)cc3s2)cc1	-13	-7	-13	56	12	6	12	i
CCOC(=O)/C(=N/Nc1ccc(Cl)cc1)S(=O)(=O)c1ccccc1	7	7	-4	18	-6	-1	x	i
Cc1cccc(-c2ncc(S(=O)(=O)C(C)(C)C)c(N)n2)c1	x	-2	-3	0	-9	0	-24	i

The whole of this part, from the start:
SMILES	Yeast UUG start	MT1-MMP act inh	MT1-MMP act inh RFP	CSC inhib	eIF4H FP inh	PABP polyA inh	Env fusion inh	Rce1 inh	others
Cc1ccc(NC(=O)CSc2nc3ccc(Nc4nc(N5CCOCC5)nc(N5CCOCC5)n4)cc3s2)cc1	-13	-7	-13	56	12	6	12	i
CCOC(=O)/C(=N/Nc1ccc(Cl)cc1)S(=O)(=O)c1ccccc1	7	7	-4	18	-6	-1	x	i
Cc1cccc(-c2ncc(S(=O)(=O)C(C)(C)C)c(N)n2)c1	x	-2	-3	0	-9	0	-24	i
C=CCOC(=O)C1=C(C)NC(C)=C(C(=O)OCC=C)C1c1cccs1	3	-12	-8	17	-1	0	x	i
Cc1c(N=Cc2cc3c(cc2Cl)OCO3)c(=O)n(-c2ccccc2)n1C	-8	0	4	12	-12	4	2	i
COCCCNC(=O)CSc1nc2c(sc3ccccc32)c(=O)n1CCCC(=O)NCC1CCCO1 (stereo unspecified)	x	2	2	1	-4	0	4	i
Cc1ccc2nc(-c3ccncc3)cc(C(=O)Nc3ccc(OC(F)F)cc3)c2c1	5	-9	-19	53	-2	-4	-6	i
O=C1C2C3C=CC(C4CC34)C2C(=O)N1/N=C/c1ccc(-c2ccc(F)cc2[N+](=O)[O-])o1 (stereo unspecified)	7	-6	-2	u	126	120	-40	i	eIF4H FP inh retest=-1;PABP polyA inh retest=5
O=[N+]([O-])c1cc(/C=N\Nc2ccccn2)ccc1Cl	-10	-2	0	9	3	-6	3	i
O=C(CN1CC(c2ccccc2)CC1=O)OCc1ccccc1F (stereo unspecified)	-8	4	7	-2	-2	-2	-33	i
O=C(/C=C/c1ccc2c(c1)OCO2)NCCS(=O)(=O)N1CCN(c2ccccc2)CC1	-8	2	-2	x	x	x	-38	x
COC(=O)CN1C(=O)S/C(=C/c2cc(C)n(C)c2C)C1=O	-13	-1	0	-6	4	8	-201	i
CC(Sc1nc2ccccc2[nH]1)C(=O)O (stereo unspecified)	-12	-2	0	-4	0	0	-23	i
COCCNc1nnc(SCC(=O)NNC(=O)c2ccc([N+](=O)[O-])cc2)s1	2	3	2	2	x	x	5	i
Cc1n[nH]c(=O)c2c(NC(=O)CSc3ccccc3Cl)oc(C)c12	-13	4	2	2	x	x	-6	i
CCSC1=C(C#N)C(c2ccc3c(c2)OCO3)C2=C(CCCC2=O)N1 (stereo unspecified)	x	-2	-5	11	-6	-11	x	i
O=C(NCc1ccco1)C(c1ccc(F)cc1)N(CC1CCCO1)C(=O)Cn1nnc2ccccc21 (stereo unspecified)	-15	6	7	-11	0	-2	x	i
CCOC(=O)C1CCN(C(=O)CC2C(=O)N(Cc3ccccc3)C(C)c3nc4ccccc4n32)CC1 (stereo unspecified)	-17	9	0	-4	-10	12	-28	i
Oc1ccc(-c2nc(-c3ccc(F)cc3)c(-c3ccncc3)[nH]2)cc1	-13	9	-10	x	x	x	57*	x
CNC(=O)c1c[nH]c2ccc(S(=O)(=O)Nc3ccccc3F)cc2c1=O	-10	6	4	9	3	3	12	i
CN(C)S(=O)(=O)c1cccc(NC(=O)COC(=O)c2ccc3c(c2)OCO3)c1	x	5	0	-4	1	0	13	i
CCOc1ccccc1NC(=O)CSc1n[nH]c(N)n1	-17	0	1	-5	1	-12	3	i
Cc1ccc2c(Cl)cc(Cl)c(OCC(=O)O)c2n1	-12	2	4	-13	-4	5	-6	i
O=C(NCCCN1CCCC1)Nc1ccc(F)cc1	4	0	3	-5	-9	-3	4	i
COc1ccc(/C=N/Nc2nc(N3CCCCC3)nc(N3CCCCC3)n2)cc1[N+](=O)[O-]	-24	-9	-4	13	-3	2	-3	i

Five entries picked at random from the list so far:
SMILES	Yeast UUG start	MT1-MMP act inh	MT1-MMP act inh RFP	CSC inhib	eIF4H FP inh	PABP polyA inh	Env fusion inh	Rce1 inh	others
Cc1ccc(NC(=O)CSc2nc3ccc(Nc4nc(N5CCOCC5)nc(N5CCOCC5)n4)cc3s2)cc1	-13	-7	-13	56	12	6	12	i
COCCNc1nnc(SCC(=O)NNC(=O)c2ccc([N+](=O)[O-])cc2)s1	2	3	2	2	x	x	5	i
O=C(/C=C/c1ccc2c(c1)OCO2)NCCS(=O)(=O)N1CCN(c2ccccc2)CC1	-8	2	-2	x	x	x	-38	x
CCOC(=O)C1CCN(C(=O)CC2C(=O)N(Cc3ccccc3)C(C)c3nc4ccccc4n32)CC1 (stereo unspecified)	-17	9	0	-4	-10	12	-28	i
Cc1ccc2nc(-c3ccncc3)cc(C(=O)Nc3ccc(OC(F)F)cc3)c2c1	5	-9	-19	53	-2	-4	-6	i

The list goes on.
SMILES	Yeast UUG start	MT1-MMP act inh	MT1-MMP act inh RFP	CSC inhib	eIF4H FP inh	PABP polyA inh	Env fusion inh	Rce1 inh	others
CCC1Oc2ccc(C)cc2N(CC(=O)N2CCCC2)C1=O (stereo unspecified)	-10	-1	-1	-4	-2	0	6	i
CCC(=O)N/N=C/c1ccc(OS(=O)(=O)c2ccccc2)cc1	x	5	10	-14	1	-3	4	i
O=C(C1=C[C@@H](c2coc3ccccc3c2=O)C[C@@H](OCc2ccc(CO)cc2)O1)N1CCN(Cc2ccccc2)CC1	-11	1	-7	-24	2	2	-1[16.7 µM]	i
Cc1nn(C(C)C(=O)N2CCCC2)c(=O)c2nn(-c3ccccc3)c(C)c12 (stereo unspecified)	-12	2	2	-11	-5	3	0	i
CCN(CC)CCN1C(=O)C(=O)/C(=C(/O)c2c(C)[nH]c(C(=O)OC)c2C)C1c1ccc(OC)cc1 (stereo unspecified)	-5	5	7	-9	4	-4	-72	i
CCOC(=O)C1CCN(C(=O)c2ccc(OCC(=O)Nc3cccc(C(F)(F)F)c3)c(OC)c2)CC1	x	15	-29	x	x	x	5	i
COc1ccc(CN(CC2CCC(C(=O)O)CC2)C(=S)Nc2cc(C)cc(C)c2)cc1 (stereo unspecified)	-17	2	3	x	-5	12	-4	i
Cc1ccccc1C(=O)NCC(=O)OC(C)C(=O)NCc1ccco1 (stereo unspecified)	-6	7	8	-7	x	x	1	i
O=C(N/N=C1\C2CN3CCN(C2)CC1(c1ccccc1)C3)c1ccc(F)cc1	x	-2	3	-1	-2	0	-9	i
CCOC(=O)c1cnn(-c2ccc(Cl)cc2)c1C1CCN(C(=O)OC(C)(C)C)CC1	x	-4	-11	-13	-5	1	34	i
O=c1c2ccccc2nc(SCc2ccccc2)n1Cc1ccco1	-12	-3	-2	22	-7	-1	-36	i
Nc1c(-c2ccc(Cl)cc2)cnn1-c1cccc([N+](=O)[O-])c1	-8	-3	-13	-3	8	-5	-162	i
COc1cc(C(=S)N2CCOCC2)cc(OC)c1OC(=O)c1ccccc1[N+](=O)[O-]	-12	6	-3	-23	-5	4	-10	i
CC(=O)Nc1nc(C)c(Oc2ccc(C)cc2)c(=O)[nH]1	x	0	1	-19	-4	3	-1	i
CC(C)[C@H](NC(=O)[C@@H]1CSCN1C(=O)OC(C)(C)C)C(=O)NCC1CCC(C(=O)O)CC1 (stereo partly specified)	7	-3	4	-1	-8	4	-34	i
CC1=C(C(=O)Nc2ccccc2C)C(c2ccc(C)o2)n2c(s/c(=C/c3ccccc3)c2=O)=N1 (stereo unspecified)	-49	-6	0	-6	7	8	-85	i
Cc1cccc(C)c1NC(=S)NC1CCCCC1	x	-6	-6	x	4	8	12	i
Cn1c(C(=O)O)cnc1Sc1ncc(C(F)(F)F)cc1Cl	0	-1	2	-7	6	4	13	i
COC(=O)[C@H](CCSC)NC(=O)Nc1ccc(C)c(C)c1	-8	-6	-2	-10	2	-11	-11	i
CC(=O)Nc1ccc(Nc2nc(C)c([N+](=O)[O-])c(Nc3ccc(NC(C)=O)cc3)n2)cc1	3	-2	-6	-2	16	7	13	i
Nc1cc(N)nc(SCCN2CCCCC2)n1	-19	2	1	-4	4	9	7	i
COc1ccc(C(=O)OCC(=O)N2CCN(C(=O)c3ccco3)CC2)c(OC)c1OC	-2	0	4	x	x	x	44	x
Cc1ccc(C)c(N=Cc2c(O)c3ccccc3oc2=O)c1	0	-13	-2	-10	-15	4	x	i

Screening data (PubChem)
